Vaccinia inh – blocks a specific stage of Vaccinia orthopoxvirus infection; Vaccinia-infected cells, mCherry/Venus stage reporter fluorescence; active compounds read low; some inactives read as strong as hits; activity change (mCherry), % (concentration not given with the values); 89,000 compounds, 0.01% hits;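 active = mCherry past -33% and 40 or more points under the early reporter, replicates agreeing; inconclusive = past -33% without that gap or agreement; tested in A549 cells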;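 also: scaled between vehicle wells and reference inhibitor wells; 23 nL library stock went into each well; one replicate is shown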
Vaccinia inh Venus – further read-out of Vaccinia inh, marked with its call; activity change (Venus), %; measured here: Venus reporter, other viral stage;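 negative = less Venus signal; first of two replicates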
An asterisk follows results filed as active; ? = inconclusive; . = no result given; & = joins results of further samples. These rows are one share of the data, so the mix of outcomes need not match the whole.

SMILES	Vaccinia inh	Vaccinia inh Venus
COc1ccc(-c2ccc([C@H]3[C@@H](CO)N4CCCCN(C(=O)c5ccc6c(c5)OCO6)C[C@@H]34)cc2)cc1	-26	-42
O=C(C[C@@H]1CC[C@H]2[C@@H](COC[C@@H](O)CN2C(=O)Nc2cc(Cl)cc(Cl)c2)O1)NCC1CC1	-20	-14
C[C@@H]1CCCCO[C@@H](CN(C)CC2CCCCC2)[C@H](C)CN([C@H](C)CO)C(=O)c2cc(NS(=O)(=O)c3cccs3)ccc2O1	?	.
CC=Cc1ccc2n(c1=O)C[C@H]1[C@H](CO)[C@@H](C(=O)NCC(F)(F)F)N(CC)[C@@H]21 (mixture of isomers)	11	14
C=CCNC(=O)[C@H]1[C@@H]2C(=O)O[C@@H](c3ccccc3)[C@@H](c3ccccc3)N2[C@@H](c2ccccc2OCCO)[C@]12C(=O)N(C(=O)OCCOC)c1ccccc12	?	.
COc1cc(CN2CC3(CN(C(=O)CN4CCOCC4)C3)c3c(n(C)c4cc(OC)ccc34)[C@@H]2CO)cc(OC)c1	9	1
CC(=O)N1[C@H](CO)[C@@H](c2ccccc2)[C@H]1CN(C)S(=O)(=O)c1ccccc1	13	3
COc1ccc2c3c(n(C)c2c1)[C@@H](CO)N(C(=O)Nc1ccc(F)cc1)CC31CCN(C(=O)Cc2ccncc2)CC1	12	2
O=C(C[C@H]1CC[C@@H]2[C@H](COC[C@@H](O)CN2C(=O)C2CC2)O1)NCc1ccccc1Cl	18	11
COc1cccc(NC(=O)N(C)C[C@@H]2OCc3cnnn3CCCC(=O)N([C@H](C)CO)C[C@@H]2C)c1	7&12	4&9
Cc1ccc(S(=O)(=O)Nc2ccc3c(c2)C(=O)N([C@@H](C)CO)C[C@H](C)[C@H](CN(C)Cc2ccccc2)O3)cc1	6	-3
O=C(NCC[C@H]1CC[C@H](NC(=O)c2cnccn2)[C@@H](CO)O1)Nc1ccc(Cl)cc1	-3	5
C[C@H]1CCCCO[C@H](CN(C)C(=O)Nc2cccc3ccccc23)[C@@H](C)CN([C@@H](C)CO)C(=O)c2cc(NC(=O)Nc3ccc(C(F)(F)F)cc3)ccc2O1	10	3
CC(=O)NC[C@H]1[C@@H](c2ccccc2)[C@@H](CO)N1C(=O)Cc1cccnc1	14	17
CC(C)NC(=O)Nc1ccc2c(c1)C(=O)N([C@@H](C)CO)C[C@@H](C)[C@@H](CN(C)Cc1ccc(Oc3ccccc3)cc1)O2	?	.
O=C(CC1CC1)Nc1ccc2c(c1)[C@H]1C[C@H](CC(=O)N3CCCCC3)O[C@H](CO)[C@H]1O2	9	4
C[C@H](CO)N1C[C@H](C)[C@H](CN(C)S(=O)(=O)c2ccc(F)cc2)Oc2cc(-c3cccc(F)c3)ccc2S1(=O)=O	?	.
CCCNC(=O)[C@H]1[C@H](CO)[C@H]2Cn3c(ccc(C4=CCCCC4)c3=O)[C@@H]1N2	-13	0
C[C@H]1CN([C@@H](C)CO)S(=O)(=O)c2ccc(Br)cc2O[C@H]1CN(C)C	37	16
O=C(Cc1ccccn1)N[C@@H]1CC[C@H](CCNC(=O)c2cc(Cl)cc(Cl)c2)O[C@H]1CO	13	4
COc1ccccc1NC(=O)N[C@H]1CC[C@H](CCn2cc(-c3ccccc3OC)nn2)O[C@H]1CO	-14	-12
CN1CCN(C(=O)C[C@@H]2C[C@@H]3c4cc(NC(=O)c5ccc6c(c5)OCO6)ccc4O[C@@H]3[C@@H](CO)O2)CC1	0	10
COc1ccc(NC(=O)Nc2ccc3c(c2)C(=O)N([C@H](C)CO)C[C@@H](C)[C@@H](CN(C)C(=O)NC2CCCCC2)OCCCC[C@@H](C)O3)cc1	-18	-11
C[C@H](CO)N1C[C@H](C)[C@@H](CN(C)C(=O)CCCN(C)C)OCCCC[C@H](C)Oc2ccc(NC(=O)CCCN(C)C)cc2C1=O	15	6
C[C@@H]1CCCCO[C@H](CN(C)S(=O)(=O)c2ccc(F)cc2)[C@H](C)CN([C@H](C)CO)C(=O)c2cc(NS(=O)(=O)c3ccc(Cl)cc3)ccc2O1	-4	-3
COc1ccccc1C#Cc1ccc2c(c1)O[C@@H](CN(C)C(C)=O)[C@@H](C)CN([C@H](C)CO)S2(=O)=O	-21	-20
O=C(Nc1ccc2c(c1)[C@@H]1C[C@H](CC(=O)N3CCc4ccccc4C3)O[C@H](CO)[C@@H]1O2)Nc1ccccc1F	?	.
COc1ccc(S(=O)(=O)N(C)C[C@@H]2OCCCC[C@@H](C)Oc3ccc(NC(=O)Nc4ccc(F)cc4)cc3C(=O)N([C@@H](C)CO)C[C@H]2C)cc1	-2	9
C[C@H]1CN([C@@H](C)CO)C(=O)c2cc(N(C)C)ccc2O[C@H]1CN(C)C(=O)Nc1ccccc1	22	6
C[C@@H]1CCCCO[C@@H](CN(C)C(=O)NC2CCCCC2)[C@H](C)CN([C@@H](C)CO)C(=O)c2cc(NC(=O)CCCN(C)C)ccc2O1	-5	-1
COc1cccc(S(=O)(=O)N(C)C[C@H]2OCc3cnnn3CCCC(=O)N([C@@H](C)CO)C[C@@H]2C)c1	6	1
C[C@@H]1CN([C@@H](C)CO)C(=O)c2cc(NS(C)(=O)=O)ccc2O[C@@H](C)CCCCO[C@H]1CN(C)S(=O)(=O)c1cccs1	19	1
O=C(C[C@H]1C[C@@H]2c3cc(NC(=O)C4CCOCC4)ccc3O[C@@H]2[C@@H](CO)O1)NCC1CC1	16	9
Cc1noc(C)c1NC(=O)N(C)C[C@H]1Oc2ccc(NC(=O)NC(C)C)cc2CC(=O)N([C@@H](C)CO)C[C@H]1C	13	4
CC(=O)N(C)C[C@@H]1Oc2cc(C#CCN(C)C)ccc2S(=O)(=O)N([C@H](C)CO)C[C@@H]1C	10	2
C[C@H](CO)N1C[C@H](C)[C@@H](CN(C)Cc2ccncc2)Oc2ccc(N(C)C)cc2C1=O	10	3
C[C@H]1CN([C@@H](C)CO)C(=O)c2cc(C3=CCCCC3)cnc2O[C@@H]1CN(C)Cc1ccccc1	-28	-18
CC(C)CC#Cc1cnc2c(c1)C(=O)N([C@@H](C)CO)C[C@@H](C)[C@@H](CN(C)Cc1ccccc1C(=O)O)O2	-22	-10
C[C@@H]1CN([C@H](C)CO)S(=O)(=O)c2ccc(C#C[C@@H](C)O)cc2O[C@H]1CN(C)Cc1ccccn1	18	4
O=C(CCN1CCCCC1)N[C@@H]1CC[C@H](CCNS(=O)(=O)c2ccc(Cl)cc2)O[C@H]1CO	7	6
COc1ccccc1-c1ccc2c(c1)O[C@@H](CN(C)C(C)=O)[C@@H](C)CN([C@H](C)CO)S2(=O)=O	23	10
CCNC(=O)C[C@@H]1CC[C@@H]2[C@H](COC[C@@H](O)CN2Cc2ccc(Cl)c(Cl)c2)O1	-17	-16
Cc1ccc(-c2ccc([C@H]3[C@H](CO)N4C(=O)CN(C(=O)c5cccnc5)C[C@@H]34)cc2)cc1	19	-6
O=C(NCc1nc2ccccc2[nH]1)C1=C[C@@H](c2csc3ccccc23)C[C@@H](OCCCCO)O1	4	10
O=C(C[C@@H]1CC[C@H]2[C@@H](COC[C@@H](O)CN2Cc2ccccc2F)O1)N[C@@H]1CCN(Cc2ccccc2)C1	-22	-14
COc1cccc(-c2ccc3n(c2=O)C[C@@H]2[C@@H](CO)[C@H](C(=O)N4CCCCC4)N(C)[C@H]32)c1	-16	-5
CCCNC(=O)C[C@@H]1C[C@H]2c3cc(NC(=O)Nc4ccc(OC)cc4)ccc3O[C@H]2[C@@H](CO)O1	5	0
C[C@H](CO)N1C[C@H](C)[C@H](CN(C)CC2CC2)Oc2cc(Br)ccc2S1(=O)=O	-2	-2
CCN1[C@H](C(=O)N[C@@H](C)c2ccccc2)[C@@H](CO)[C@@H]2Cn3c(ccc(-c4cccc(F)c4)c3=O)[C@@H]21	-7	-3
O=S(=O)(c1ccccc1)N1CCCCN2[C@H](CO)[C@H](c3ccc(-c4ccccc4)cc3)[C@@H]2C1	?	.
CS(=O)(=O)Nc1ccc2c(c1)[C@H]1C[C@H](CC(=O)NCc3cccnc3)O[C@@H](CO)[C@H]1O2	5	1
Cc1ccc(-c2cnc3c(c2)C(=O)N([C@@H](C)CO)C[C@@H](C)[C@H](CN(C)C(=O)Cc2cccnc2)O3)cc1	14	10
C[C@H]1CN([C@@H](C)CO)C(=O)c2cc(C#Cc3ccccn3)cnc2O[C@H]1CN(C)CC1CCOCC1	23	32
COc1ccc(CN(C)C[C@H]2Oc3ccc(NS(=O)(=O)c4ccc(F)cc4)cc3CC(=O)N([C@H](C)CO)C[C@H]2C)cc1	-22	-13
CO[C@@H]1CN(C)C(=O)c2cc(NS(=O)(=O)c3ccccc3)ccc2OC[C@@H](C)NC[C@@H]1C	30	18
CCCC(=O)Nc1ccc2c(c1)OC[C@H](C)NC[C@@H](C)[C@H](OC)CN(C)C2=O	2	10
C[C@@H]1CN([C@H](C)CO)C(=O)c2cccc(NS(=O)(=O)c3cn(C)cn3)c2O[C@H]1CN(C)S(=O)(=O)c1ccc(Cl)cc1	6	12
O=S(=O)(NC1CCN(Cc2ccc(OCCO)cc2)CC1)c1cccc2cccnc12	-10	-13
C[C@H](CO)N1C[C@H](C)[C@@H](CN(C)C(=O)Nc2ccc(F)cc2)Oc2ccc(NC(=O)Nc3ccc(C(F)(F)F)cc3)cc2CC1=O	-18	-15
C/C=C/c1cnc2c(c1)C(=O)N([C@H](C)CO)C[C@H](C)[C@@H](CN(C)S(=O)(=O)c1ccc(OC)cc1)O2	-5	-10
More compounds follow.
SMILES	Vaccinia inh	Vaccinia inh Venus
C[C@H]1CN([C@@H](C)CO)C(=O)c2cc(C3=CCCCC3)cnc2O[C@@H]1CN(C)C(=O)C1CCOCC1	9	5
C[C@H]1CN([C@@H](C)CO)C(=O)c2cc(NC(=O)C3CCCCC3)ccc2O[C@H]1CN(C)C(=O)NC1CCCCC1	16	14
C[C@@H]1CCCCO[C@H](CN(C)C(=O)NC2CCCCC2)[C@@H](C)CN([C@H](C)CO)C(=O)c2cc(NC(=O)c3ccncc3)ccc2O1	12	1
CC(C)NC(=O)Nc1ccc2c(c1)CC(=O)N([C@H](C)CO)C[C@@H](C)[C@H](CN(C)C(=O)Nc1ccc(F)cc1)O2	12	5
C[C@@H]1CN([C@H](C)CO)C(=O)c2cccc(NS(C)(=O)=O)c2O[C@@H]1CN(C)C(=O)Nc1ccc(F)cc1	11	6
C[C@@H]1CCCCO[C@@H](CN(C)Cc2ccc3c(c2)OCO3)[C@H](C)CN([C@@H](C)CO)C(=O)c2cc(NC(=O)Nc3ccc(C(F)(F)F)cc3)ccc2O1	?	.
COC(=O)C[C@@H]1CC[C@H]2[C@@H](COc3ccc(NC(=O)Nc4ccccc4C)cc3C(=O)N2C)O1	7	5
C[C@@H]1CCCCO[C@H](CN(C)S(C)(=O)=O)[C@@H](C)CN([C@H](C)CO)C(=O)c2cc(NS(=O)(=O)c3ccccc3)ccc2O1	16	-2
C[C@@H]1CN([C@H](C)CO)C(=O)Cc2cc(NC(=O)Nc3ccc4c(c3)OCO4)ccc2O[C@@H]1CN(C)S(=O)(=O)c1ccc(F)cc1	-9	-5
Cc1ccccc1-c1ccc2c(c1)O[C@H](CN(C)C(=O)Nc1ccccc1)[C@@H](C)CN([C@@H](C)CO)S2(=O)=O	?	.
COc1ccccc1CNC(=O)C[C@H]1CC[C@@H]2[C@@H](COc3ccc(NC(=O)Nc4ccc(F)c(F)c4)cc3C(=O)N2C)O1	-31	-21
COCC(=O)N1CCCCN2[C@H](CO)[C@@H](c3ccc(-c4ccc(F)cc4)cc3)[C@@H]2C1	20	10

Rewritten as a markdown table: entries from further up.
| structure | Vaccinia inh | Vaccinia inh Venus |
| --- | --- | --- |
| COCC(=O)N1CCCCN2[C@H](CO)[C@@H](c3ccc(-c4ccc(F)cc4)cc3)[C@@H]2C1 | 20 | 10 |
| C[C@H]1CN([C@@H](C)CO)C(=O)c2cc(NC(=O)C3CCCCC3)ccc2O[C@H]1CN(C)C(=O)NC1CCCCC1 | 16 | 14 |
| COC(=O)C[C@@H]1CC[C@H]2[C@@H](COc3ccc(NC(=O)Nc4ccccc4C)cc3C(=O)N2C)O1 | 7 | 5 |
| C[C@@H]1CN([C@H](C)CO)C(=O)c2cccc(NS(C)(=O)=O)c2O[C@@H]1CN(C)C(=O)Nc1ccc(F)cc1 | 11 | 6 |
| CC(C)NC(=O)Nc1ccc2c(c1)CC(=O)N([C@H](C)CO)C[C@@H](C)[C@H](CN(C)C(=O)Nc1ccc(F)cc1)O2 | 12 | 5 |

Following part:
SMILES	Vaccinia inh	Vaccinia inh Venus
COc1ccc(S(=O)(=O)Nc2ccc3c(c2)CC(=O)N([C@@H](C)CO)C[C@@H](C)[C@@H](CN(C)Cc2ccc(C(=O)Nc4ccccc4N)cc2)O3)cc1	3	-2
CO[C@@H]1CN(C)C(=O)c2ccc(NC(=O)C3CCCCC3)cc2OC[C@H](C)N(Cc2nccs2)C[C@@H]1C	-9	-9
O=C(C1CC1)N1CCCCN2[C@H](CO)[C@H](c3ccc(C#CC4CCCC4)cc3)[C@@H]2C1	-16	-27
C[C@H]1CN([C@@H](C)CO)C(=O)Cc2cc(NC(=O)C3CC3)ccc2O[C@H]1CN(C)C(=O)Nc1ccc(F)cc1	-2	3
CC(C)NC(=O)N(C)C[C@@H]1Oc2ccc(NS(=O)(=O)c3cccs3)cc2CC(=O)N([C@H](C)CO)C[C@@H]1C	-13	-11

Part of the list above in a different format.
| compound | Vaccinia inh | Vaccinia inh Venus |
| --- | --- | --- |
| O=C(C[C@@H]1CC[C@H]2[C@@H](COC[C@@H](O)CN2C(=O)Nc2cc(Cl)cc(Cl)c2)O1)NCC1CC1 | -20 | -14 |
| C[C@@H]1CCCCO[C@@H](CN(C)CC2CCCCC2)[C@H](C)CN([C@H](C)CO)C(=O)c2cc(NS(=O)(=O)c3cccs3)ccc2O1 | ? | . |
| CC=Cc1ccc2n(c1=O)C[C@H]1[C@H](CO)[C@@H](C(=O)NCC(F)(F)F)N(CC)[C@@H]21 (mixture of isomers) | 11 | 14 |
| C=CCNC(=O)[C@H]1[C@@H]2C(=O)O[C@@H](c3ccccc3)[C@@H](c3ccccc3)N2[C@@H](c2ccccc2OCCO)[C@]12C(=O)N(C(=O)OCCOC)c1ccccc12 | ? | . |

Screening results as filed in PubChem BioAssay.
